# Compound activity (PubChem BioAssay)
# Apoferritin bind: qHTS Assay for Identification of Novel General Anesthetics; apoferritin/1-aminoanthracene competitive binding, fluorescence; Potency, µM (doses to about 77.5 µM), inactives show at the top dose activity change, negative = displacement, usual class: inhibitors; hit rate 0.074% among 350,000; Ferritin light chain (Equus caballus), P02791; AID 485281, 2010; note: potency is the fitted concentration of half-maximal effect; % is set by controls: 0 for no effect and ±100 for the full control effect; nearly all actives have a fitted effect of over 20% in size
#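 Horse-spleen apoferritin (10 uM) was mixed with 50% saturated 1-aminoanthracene in PBS, exposed to compounds for 10 min at room temperature, and read for fluorescence (ex 380 nm, em 535 nm). Competitive displacement was fitted with a four-parameter Hill equation.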
# BLM helicase inh: qHTS Assay for Inhibitors of Bloom's syndrome helicase (BLM); RecQ-like DNA helicase BLM (Homo sapiens), P54132; recombinant BLM DNA unwinding, fluorescence dequenching; Potency, µM (series often up to 56.1 µM), inactives show at the top dose activity change, negative = inhibition, usual class: inhibitors; hit rate 0.2% among 350,000; AID 2528, 2010;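 note: potency is the fitted concentration of half-maximal effect; plate controls were vehicle for no effect and no enzyme for full effect; nearly all actives have a fitted effect of over 35% in size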
# Target sequence (P54132 whole entry, looked up): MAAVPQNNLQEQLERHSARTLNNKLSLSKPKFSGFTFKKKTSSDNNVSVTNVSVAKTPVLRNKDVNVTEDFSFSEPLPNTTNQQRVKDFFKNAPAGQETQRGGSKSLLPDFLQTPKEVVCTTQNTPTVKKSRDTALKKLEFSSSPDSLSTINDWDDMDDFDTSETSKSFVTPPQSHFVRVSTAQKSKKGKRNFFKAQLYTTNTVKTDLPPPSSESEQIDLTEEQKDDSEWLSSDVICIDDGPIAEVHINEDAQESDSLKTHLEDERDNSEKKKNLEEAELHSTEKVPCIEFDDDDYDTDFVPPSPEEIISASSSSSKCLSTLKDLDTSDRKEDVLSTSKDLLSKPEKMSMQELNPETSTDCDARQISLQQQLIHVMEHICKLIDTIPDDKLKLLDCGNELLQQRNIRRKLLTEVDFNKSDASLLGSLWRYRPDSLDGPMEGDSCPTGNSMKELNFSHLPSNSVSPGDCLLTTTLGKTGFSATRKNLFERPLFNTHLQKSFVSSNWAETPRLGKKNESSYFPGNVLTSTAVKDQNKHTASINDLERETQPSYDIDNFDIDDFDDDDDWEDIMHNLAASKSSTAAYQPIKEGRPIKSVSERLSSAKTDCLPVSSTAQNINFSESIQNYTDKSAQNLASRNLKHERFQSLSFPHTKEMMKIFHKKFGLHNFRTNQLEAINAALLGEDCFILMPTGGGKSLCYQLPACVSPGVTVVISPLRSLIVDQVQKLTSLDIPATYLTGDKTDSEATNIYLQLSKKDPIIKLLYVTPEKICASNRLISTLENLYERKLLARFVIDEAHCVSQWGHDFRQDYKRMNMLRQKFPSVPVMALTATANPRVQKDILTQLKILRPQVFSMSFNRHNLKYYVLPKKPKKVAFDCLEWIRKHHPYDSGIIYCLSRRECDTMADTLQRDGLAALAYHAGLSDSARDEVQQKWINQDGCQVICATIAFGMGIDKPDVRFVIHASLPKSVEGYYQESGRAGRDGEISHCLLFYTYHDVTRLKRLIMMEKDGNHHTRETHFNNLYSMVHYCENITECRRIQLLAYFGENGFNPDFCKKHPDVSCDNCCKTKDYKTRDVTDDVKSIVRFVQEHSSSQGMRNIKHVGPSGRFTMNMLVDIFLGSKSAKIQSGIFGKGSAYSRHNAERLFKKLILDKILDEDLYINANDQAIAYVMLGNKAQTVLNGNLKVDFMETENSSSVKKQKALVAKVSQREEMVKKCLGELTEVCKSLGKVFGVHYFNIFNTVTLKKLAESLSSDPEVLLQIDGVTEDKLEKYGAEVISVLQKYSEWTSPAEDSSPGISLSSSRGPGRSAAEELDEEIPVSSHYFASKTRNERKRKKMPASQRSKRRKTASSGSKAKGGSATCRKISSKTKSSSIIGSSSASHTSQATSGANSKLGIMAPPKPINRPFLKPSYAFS
# Pol kappa inh: qHTS for Inhibitors of Polymerase Kappa. purified Pol kappa, fluorescent DNA synthesis assay, 10 min. Potency, µM (doses to about 107 µM), inactives show at the top dose activity, negative = inhibition, actives largely listed as inhibitors. hit rate 0.53% among 400,000; note: potency is the fitted concentration of half-maximal effect; % is set by controls: 0 for no effect and ±100 for the full control effect
#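 Activity was followed as the change in fluorescence between reads at 0 and 10 min after starting the reaction with 50 nM substrate. Beforehand, 10 nM polymerase had been preincubated with compound for 15 min at room temperature.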
# Pol iota inh: qHTS for Inhibitors of Polymerase Iota | DNA polymerase iota (Homo sapiens), Q9UNA4 | Pol iota fluorescent replication assay, 10 min | Potency, µM (top dose mostly 115 µM), without a hit: top-dose activity, negative = inhibition, most hits filed as inhibitors | hit rate 1% among 390,000; note: potency is the fitted concentration of half-maximal effect
#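 Fluorescent replication assay read twice, at 0 min and 10 min after adding 50 nM (final) substrate. Enzyme (10 nM) and compounds were first incubated 15 min at room temperature; enzyme-free buffer wells were negative controls.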
# GRP78 ERSR act: qHTS for Inducers of the Endoplasmic Reticulum Stress Response (ERSR) in Human Glioma: qHTS; AID 602332, 2012; U87-MG GRP78 promoter luciferase reporter, 16 h; hit rate 0.02% among 420,000; Potency, µM, for the others: at the highest dose activation, usual class: activators; note: potency is the fitted concentration of half-maximal effect; series mostly up to about 76 µM; % of control where 0% means no effect; nearly all actives have a fitted effect of over 35% in size
#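 ERSR induction read as luciferase luminescence (Bright-Glo, 10 min at room temperature) in stably transfected human U87-MG glioma cells exposed to compounds for 16 h, using GRP78 as sensor.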
# LDHA block: qHTS assay for inhibitors of human lactate dehydrogenase | L-lactate dehydrogenase A chain (Homo sapiens), P00338 | purified LDHA, NADH/diaphorase-resazurin fluorescence; hits give low values | activity change, % (values are at about 110 or 230 µM) | hit rate 0.15% among 480,000; in the data active = activity change below about -30%; inconclusive = mostly about -25% to -30%;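 note: plate controls were DMSO wells for no effect and wells without enzyme for full effect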
#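 Enzyme activity of human lactate dehydrogenase 5 (2 nM; 0.06 mM NADH, 0.2 mM pyruvate, 5 min, RT) is measured via a resazurin/diaphorase fluorescence readout of residual NADH.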
# * = called active by the depositor; ? = inconclusive; / = not tested or not shown; & = joins results of further samples; [ ] = remark or other dose. Unless noted, calls come from the whole dose curve; as a rule, active = well fitted curve in the direction sought with a large enough effect; inconclusive = small, poorly fitted or top-dose-only effect, or another doubt; inactive = no such curve, though single readings can be large; an effect the other way counts as inactive or inconclusive. A portion of the library. The share of hits here may be higher or lower than overall.
SMILES,Apoferritin bind,BLM helicase inh,Pol kappa inh,Pol iota inh,GRP78 ERSR act,LDHA block
CCOC(=O)C1=NN(c2ccccc2)C2C(=O)N(c3ccccc3OC)C(=O)C12 (stereo unspecified),2%,0%,0%,25%,-3%,-5
CCOC(=O)c1c(-c2ccccc2)nnn1-c1nc(OCC)nc(N2CCCCC2)n1,-11%,-6%,-7%,?,-13%,-3
O=C1C=C(NNC(=O)c2cccnc2)CC(c2ccco2)C1 (stereo unspecified),-1%,-5%,-23%,-21%,-3%,1
COc1cc(/C=C(\C#N)C(=O)Nc2cccc(C(=O)O)c2)ccc1OCc1ccc(F)cc1,-14%,-6%,-11%,?,4%,-2
COc1cccc(/C=C/C(=O)OCC(=O)Nc2cccc(S(=O)(=O)N(C)C)c2)c1,?,-4%,-16%,-14%,0%,0
O=c1cc(NC2CCCCC2)c2ccccc2o1,-15%,0%,-2%,21%,-3%,-10
CCOC(=O)N1CCN(C(=O)c2ccc3c(c2)NC(=O)/C(=C\c2ccc(OC)c(OC)c2)S3)CC1,-10%,-5%,25µM*,18µM*,-2%,0
Cc1ccc(C2(c3noc(CN(C)CCO)n3)CCCC2)cc1,-10%,-2%,-11%,4%,-2%,0
Cc1ccc(C2(c3noc(CN(C)CC4COCCO4)n3)CCCC2)cc1 (stereo unspecified),-10%,0%,13%,17%,2%,2
Cc1nc2ccc(NC(=O)NCCCO)cc2s1,13%,0%,-1%,25%,-3%,-3
CCOC(=O)c1c(NC(=O)C2COc3ccccc3O2)sc2c1CC(C)(C)NC2(C)C (stereo unspecified),9%,-10%,-1%,5%,-5%,2
CC(=O)Nc1ccc(C(=O)N2CCCC2)cc1,-6%,0%,-1%,-8%,2%,3
CC(=O)c1ccc(NC(=O)CSc2nnc(-c3ccoc3C)n2Cc2ccccc2)cc1,-8%,-7%,3%,9%,-4%,0
COc1ccc(/C=C(/Sc2nnc(-c3ccc(Cl)cc3)o2)C(=O)O)cc1,-10%,1%,-8%,15%,-2%,-5
Fc1cccc(Cl)c1CSc1ncn[nH]1,?,1%,-3%,9%,-1%,2
O=C(Nc1ccc2oc(=O)ccc2c1)c1cccnc1Cl,-8%,-2%,1%,3%,-3%,-10
CC(C)CNC(=O)COC(=O)/C=C/c1ccco1,-6%,-5%,-6%,-29%,-2%,-8
COc1ccc(C)cc1NC(=O)c1cc2c(s1)CCC2,-16%,-5%,-5%,33%[activator],1%,2
CC(C)NC(=O)C(OC(=O)c1ccccc1)C(OC(=O)c1ccccc1)C(=O)O (stereo unspecified),-8%,1%,-5%,2%,1%,-8
COc1ccccc1NC(=O)c1ccc(NC(=O)c2cc3c(s2)CCC3)cc1,4%,0%,-7%,8%,-5%,-14
C/C(CC(=O)NC1CCCCC1)=N\NC(=O)COc1ccc(C)cc1Br,-19%,-2%,-10%,-12%,-5%,-12
O=[N+]([O-])c1ccc(Cl)c(-c2ccc(/C=N/n3cnnc3)o2)c1,-1%,-18%,?,?,-2%,10
O=C(Nc1ccccc1N1CCOCC1)c1cc2c(s1)CCCCC2,-2%,-7%,-5%,68%[activator],3%,-6
N/C(=N\OC(=O)c1ccco1)c1cccc(Br)c1,?,0%,-7%,10%,8%,-3
CCC(=O)OCC(=O)Nc1cc(S(=O)(=O)N(C)C)ccc1Cl,1%,-2%,-5%,170%[activator],-2%,-7
CCC(CC)NC(=O)c1ccc(NS(=O)(=O)c2ccc3[nH]c(=O)[nH]c3c2)cc1,3%,-22%,5%,30%,-2%,-7
CCc1cccc(CC)c1NC(=O)CSc1nnc(C2CC2)n1C,7%,2%,-12%,?,-7%,-8
CC(C)c1ccc(NC(=O)COc2ccccc2)cc1,?,-9%,-16%,106%[activator],2%,0
CCN(CC)CCN(C(=O)/C=C/c1cccs1)c1nc2ccc(C)cc2s1,-4%,3%,-19%,10%,-2%,-4
O=C(NCc1cccc(CNC(=O)C(=O)NCc2ccco2)c1)C(=O)NCc1ccco1,-1%,-15%,-60%,?,-1%,-1
CCCn1nnc(NC(=O)c2ccc(-c3cc(Cl)ccc3Cl)o2)n1,-7%,4%,-7%,-28%,-1%,-16
C#CCOc1ccc2c(C)cc(=O)oc2c1,-8%,2%&-3%,6%[19.4 µM],17%,-1%&17%,-2
O=C(Nc1nc2c(s1)COc1ccccc1-2)c1cccs1,?,-12%,-3%,4%,2%,0
O=C(/C=C/c1cn(-c2ccccc2)nc1-c1cccs1)NCCN1CCOCC1,7%,3%,-1%,21%,0%,1
Oc1ccccc1-n1c(-c2ccccc2)ccc1-c1ccccc1,4%,-12%,0%,-26%,-7%,-13
CCCCCCCC(=O)N/N=C(/C)c1c(O)cc(C)oc1=O,?,-3%,-20%,18%,-5%,6
COc1ccc(C2NC(c3ccc(OC)c(OC)c3OC)C(C)C(=O)C2C)c(OC)c1OC (stereo unspecified),-5%,-4%,-14%,9%,-5%,-5
COCc1cc(=O)n2[nH]c(-c3ccsc3-n3c(C)ccc3C)cc2n1,-18%,?,11µM*,?,-4%,11
N#Cc1cnn2cc(-c3ncc(C(F)(F)F)cc3Cl)cnc12,-2%,-1%,-4%,36%[activator],0%,-14
O=C1Nc2cc(C(=O)N3CCOCC3)ccc2S/C1=C\c1ccccc1,-14%,-2%,0%,-23%,-1%,-9
CN(c1ccccc1)S(=O)(=O)c1ccc(C(=O)OCC(=O)NC(N)=O)cc1,-5%,-2%,3%,-21%,-3%,-12
CCN(c1ccccc1)S(=O)(=O)c1ccc(Cl)c(NC(=O)COC(=O)c2ccc[n+]([O-])c2)c1,5%,-4%,-9%,81%[activator],-4%,-3
CCc1ccc(NS(=O)(=O)c2ccc3[nH]cc(C(=O)N4CCCCC4)c(=O)c3c2)cc1,-21%,-8%,-42%,?,2%,1
CC1(C)Cc2ccccc2C(C(=O)c2ccccc2)=N1,3%,-4%,1%,9%,7%,-6
O=C(COc1ccccc1)NNC(=S)NC(=O)c1ccc(Cl)cc1Cl,7%,-8%,-16%,0%,0%,-14
COc1ccc(NC(=O)Nc2ccc3oc(C)nc3c2)cc1,2%,-6%,-10%,30%[activator],4%,-7
CCOc1ccc(NC(=O)c2cnsn2)cc1,-14%,-7%,-11%,11%,-13%,-2
C=CCn1c(CNC(=O)c2ccccc2F)nnc1SCC(=O)N1CCOCC1,0%,1%,3%,-7%,-4%,4
CN(C)CCN(C(=O)CN1C(=O)c2ccccc2C1=O)c1nc2cc3c(cc2s1)OCO3,-19%,43%[activator],-4%,-5%,-2%,-2
Nc1ccn([C@@H]2CS[C@H](CO)O2)c(=O)n1,5%&5%,6%&-6%&-6%,-5%&5%[60.1 µM],/,-2%&-3%,/
CCOc1ccc(NC(=O)C(=O)NCCCn2ccnc2)cc1,-8%,1%,-6%,5%,-1%,-3
CCC(c1nnnn1C1CCCC1)N1CCN(C(=O)c2ccco2)CC1 (stereo unspecified),-14%,-6%,-4%,1%,1%,-5
COC(=O)Cc1ccc(NC(=O)c2ccc(Br)o2)cc1,-10%,-3%,2%,1%,?,4
O=C(NCC(=O)N(c1ccc2c(c1)OCO2)C(C(=O)NC1CCCC1)c1ccncc1)c1ccco1 (stereo unspecified),-6%,-3%,?,?,1%,23
CCOC(=O)c1cc(C#N)c(Oc2ccc(F)cc2)nc1-c1ccccc1,?,-9%,-10%,6%,-5%,4
Oc1ccc(N2CCN(Cc3cc4c(cc3Br)OCCO4)CC2)cc1,-14%,-6%,-7%,-7%,-4%,39
O=C(CCCO)CCCCCCCCC[C@H]1N[C@H](CO)[C@@H](O)[C@@H]1O,4%,-2%,2%,6%,-5%,-2
CC(C)OCCCNC(=O)CCCC(=O)Nc1ccc(OCCc2ccccc2)cc1,?,-5%,13%,16%,-4%,0
COc1ccc(CN(C2CCCCC2C)S(=O)(=O)c2ccc(S(=O)(=O)N(C)C)cc2)cc1OC (stereo unspecified),-1%,-2%,-20%,13%,-2%,-2
Cc1c(OC(C)C(=O)N2C[C@H]3C[C@@H](C2)c2cccc(=O)n2C3)ccc2c3c(c(=O)oc12)CCC3 (stereo partly specified),-4%,4%,-5%,25%,0%,-1

# 7 entries picked at random from those above:
SMILES,Apoferritin bind,BLM helicase inh,Pol kappa inh,Pol iota inh,GRP78 ERSR act,LDHA block
CCOC(=O)c1cc(C#N)c(Oc2ccc(F)cc2)nc1-c1ccccc1,?,-9%,-10%,6%,-5%,4
COC(=O)Cc1ccc(NC(=O)c2ccc(Br)o2)cc1,-10%,-3%,2%,1%,?,4
Nc1ccn([C@@H]2CS[C@H](CO)O2)c(=O)n1,5%&5%,6%&-6%&-6%,-5%&5%[60.1 µM],/,-2%&-3%,/
CN(C)CCN(C(=O)CN1C(=O)c2ccccc2C1=O)c1nc2cc3c(cc2s1)OCO3,-19%,43%[activator],-4%,-5%,-2%,-2
Oc1ccc(N2CCN(Cc3cc4c(cc3Br)OCCO4)CC2)cc1,-14%,-6%,-7%,-7%,-4%,39
CCC(c1nnnn1C1CCCC1)N1CCN(C(=O)c2ccco2)CC1 (stereo unspecified),-14%,-6%,-4%,1%,1%,-5
O=C(CCCO)CCCCCCCCC[C@H]1N[C@H](CO)[C@@H](O)[C@@H]1O,4%,-2%,2%,6%,-5%,-2

# Going on with the list.
SMILES,Apoferritin bind,BLM helicase inh,Pol kappa inh,Pol iota inh,GRP78 ERSR act,LDHA block
CCc1ccc(NC(=O)/C(C#N)=C\c2ccc(OC)c(C(=O)O)c2)cc1,-6%,-8%,7%,52%[activator],3%,-8
CN(C)CCOC(c1ccccc1)c1ccccc1 (tested in a mixture with another compound),-1%,6%,-4%,1%,-1%&-6%&-3%,-8
CCOC(=O)C1CCN(C(=O)CCCNC(=O)Cn2cnc3sc(C)c(C)c3c2=O)CC1,6%,-3%,-15%,92%[activator],-6%,-1
O=C(Cn1cc(C(F)(F)F)ccc1=O)NCCc1ccc(Cl)cc1Cl,-5%,-14%,-4%,4%,-2%,-4
CC(C)CNC(=S)NC(=O)c1ccc(Cl)cc1Cl,-10%,-1%,9%,6%,2%,2
